Screening data (PubChem BioAssay)
ClpP mod = qHTS Assay for Activators of ClpP | 340,000 tested, 1.9% active | ATP-dependent Clp protease proteolytic subunit (Bacillus subtilis (strain 168)), P80244 | Potency, µM (top dose mostly 57.5 µM), for the others: at the top dose activity change, negative = active | purified B. subtilis ClpP, FRET peptide cleavage, 20 min; active = well fitted falling curve with a large enough effect; inconclusive = small, poorly fitted or top-dose-only effect; inactive = no such curve, though single readings can be large or run the other way; also: potency is read from the fitted curve at half-maximal effect; the source files actives as falling curves though it sought activators and does not explain the sign; nearly all actives have a fitted effect of over 65% in size; many hits overshoot -100%
Target sequence (P80244 whole entry, looked up): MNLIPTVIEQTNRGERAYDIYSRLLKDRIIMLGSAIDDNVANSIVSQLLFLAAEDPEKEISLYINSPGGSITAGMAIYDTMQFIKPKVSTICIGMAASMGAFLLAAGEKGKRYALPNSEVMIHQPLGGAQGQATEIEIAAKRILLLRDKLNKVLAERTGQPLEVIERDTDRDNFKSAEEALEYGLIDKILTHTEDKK
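Buffer: 100 mM Tris/HCl pH8, 100 mM KCl, 0.05% low protease BSA, 2.5% glycerol, 0.01% Tween-20. ClpP 10 microg/mL final; 20 min RT; delta FRET normalized to ADEP and DMSO controls.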
Menin-MLL FL inh = displaces fluorescein MLL peptide from human menin | Fluorescence polarization, fluorescein-MLL peptide displacement from menin | FP activity change, % at 61.4 µM | 290,000 tested, under 10 active | AID 1766; inconclusive = falling polarisation curve, or a change in total fluorescence; inactive = total fluorescence flat and polarisation flat or rising; no compound was filed as active; the % refers to the polarisation; negative = inhibition;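 also: % of control where 0% means no effect; inhibitors lower the polarisation; unlabelled MLL peptide was the positive control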
gsp ag = agonists of gsp mutant (McCune-Albright syndrome). gsp mutant cells, cAMP HTRF, 30 min; control for the full effect not named in the record. Potency, µM (series often up to 76.9 µM), for the others: at the top dose activation (cAMP increase), most hits filed as activators. 340,000 tested, 0.13% active; active = well fitted activation curve with a large enough effect; inconclusive = small, poorly fitted or top-dose-only effect, or another doubt; inactive = no such curve, though single readings can be large or run the other way; cell line not stated here;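 also: phosphodiesterase inhibitor Ro 20-1724 added with compounds to block cAMP breakdown; potency is read from the fitted curve at half-maximal effect; nearly all actives have a fitted effect of over 60% in size; about a fifth of the inactives were tested at one dose only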
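Cells in DMEM/10% FBS with G418 were pretreated with compounds in DMSO plus […] (300 uM stock) for 30 min at 37C. cAMP was measured by HTRF (cAMP-d2 plus anti-cAMP antibody-K) after 30 min at room temperature.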
gsp antagonist = antagonists of gsp mutant (McCune-Albright syndrome) | Potency, µM (highest dose often 76.9 µM), inactives show top-dose activity change, negative = inhibition, most hits filed as inhibitors | 340,000 tested, 0.4% active | gsp-mutant cells, cAMP HTRF, 30 min; control for the full effect not named in the record | AID 624288; active = falling curve of any shape with a large fitted effect; inconclusive = falling curve, mostly with a smaller effect; inactive = flat or rising curve; cell line not stated here;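 also: intracellular cAMP measured with PDE inhibitor Ro 20-1724 present during compound exposure; potency is read from the fitted curve at half-maximal effect; % is scaled to controls: 0 for no effect and ±100 for the full control effect; nearly all actives have a fitted effect of over 65% in size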
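Cells in G418 medium, seeded 16-24 h, 37C; buffer exchange to DPBS + 1 mM CaCl2, 0.5 mM MgCl2, 0.05% BSA; cpds in DMSO + […] (300 uM stock), 30 min 37C; HTRF cAMP detection.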
D2 agonist = agonists of human D2 dopamine receptor (beta-arrestin) | P14416 | DiscoveRx PathHunter D2 beta-arrestin, luminescence, 90 min; 100% = 57 uM dopamine signal | activation, % (concentration not given with the values) | 360,000 tested, 0.084% active; in the data active = activation above about 40%; inconclusive = about 15% to 40%; inactive = below about 15%; also: compound concentration not given in the record; the text of the record calls up to 30% inactive
Target sequence (P14416 whole entry, looked up): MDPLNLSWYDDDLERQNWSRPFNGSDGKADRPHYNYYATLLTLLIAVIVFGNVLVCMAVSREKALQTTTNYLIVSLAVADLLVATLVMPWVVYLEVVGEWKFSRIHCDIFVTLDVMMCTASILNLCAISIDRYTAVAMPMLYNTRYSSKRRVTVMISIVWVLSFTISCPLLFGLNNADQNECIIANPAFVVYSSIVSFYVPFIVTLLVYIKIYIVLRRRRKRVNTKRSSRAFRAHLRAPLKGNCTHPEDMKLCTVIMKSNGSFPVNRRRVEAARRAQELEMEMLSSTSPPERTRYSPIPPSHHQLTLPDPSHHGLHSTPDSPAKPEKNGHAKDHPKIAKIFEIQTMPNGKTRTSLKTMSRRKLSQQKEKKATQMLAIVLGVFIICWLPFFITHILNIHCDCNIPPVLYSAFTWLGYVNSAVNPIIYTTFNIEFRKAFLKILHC
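DiscoveRx PathHunter D2 beta-arrestin cells (2,100/well) attached overnight, then compound-stimulated 90 min at 37 C in HBSS/10 mM HEPES/0.1% Tween-20 buffer; beta-galactosidase complementation read by luminescence after 1 h at ambient temperature. Dopamine 57 uM final (EC100) as control.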
PINK1 modulator = changes PINK1 expression; PINK1 immunofluorescence, high-content cytometry, 24 h; Potency, µM (series often up to 76.6 µM), without a hit: top-dose activation (PINK1 increase), hits mostly activators; 410,000 tested, 0.2% active; active = well fitted activation curve with a large enough effect; inconclusive = small, poorly fitted or top-dose-only effect; inactive = flat fitted curve, though single readings scatter; cell line not stated here;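 also: potency is read from the fitted curve at half-maximal effect; % of control where 0% means no effect; nearly all actives have a fitted effect of over 65% in size; a mitochondrial uncoupler was the plate control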
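Decision-based qHTS: stable cells, 24 h exposure to five compound concentrations, CCCP as control. Fixed cells stained for PINK1 plus nuclear, mitochondrial and cell markers, cytometer read.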
Sfp inh = inhibitors of Bacillus subtilis Sfp phosphopantetheinyl transferase | Biochemical Sfp PPTase activity, qHTS | Potency, µM, without a hit: max response, negative = inhibition, most hits filed as inhibitors | Q9F4F7 | 310,000 tested, 3.5% active | AID 1490; active = well fitted inhibition curve with a large enough effect; inconclusive = small, poorly fitted or top-dose-only effect, or another doubt; inactive = no such curve, though single readings can be large or run the other way;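 also: the enzyme is Sfp with the accession as filed and its product quenches rhodamine fluorescence; potency is read from the fitted curve at half-maximal effect; 0% = enzyme reaction without inhibitor and -100% = no enzyme wells; top concentration of the series not given in the record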
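Fluorescence-quenching assay: 15 nM Sfp-PPTase preincubated 15 min at room temperature with compound, then 5 uM rhodamine-CoA and 12.5 uM BHQ-2-labelled YbbR peptide added. Fluorescence (ex 525/em 598 nm) read at start and after 30 min; difference gives rate.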
* = called active by the depositor; ? = inconclusive; / = no result given; & = joins results of further samples; [ ] = another dose, or the depositor's remark. No enrichment for hits; about 5.1% have a hit in one of these screens.

The line under a structure holds: Sfp inh | gsp ag | ClpP mod | PINK1 modulator | D2 agonist | Menin-MLL FL inh | gsp antagonist
O=C(NCCc1nccs1)C1CCC(=O)N(CCc2ccc(Cl)cc2)C1 (stereo unspecified)
→ 13.9% | -32.4% | 0.8% | 1.0% | 2.0 | / | 1.3%
Cn1c(=O)c2c(ncn2CC(O)CO)n(C)c1=O (stereo unspecified)
→ 15.1%&-9.5% | / | 0.1% | 0.6% | -4.4 | 4.3&3.5 | 7.9%
COc1ccc(NC(=O)COC(=O)CN2C(=O)C3CCCCC3C2=O)cc1OC (stereo unspecified)
→ / | 2.8% | -1.2% | -0.5% | -2.2 | / | -6.9%
O=C(CCN1C(=O)CSC1=O)Nc1ccccc1
→ 10.4% | 29.7% | 1.4% | 0.1% | -1.4 | 4.5 | 3.8%
CCOC(=O)c1c(S(=O)(=O)NCC(=O)NCc2ccc(C)cc2)c(C)n(C)c1C
→ 9.2% | -10.5% | -1.0%&0.7% | 1.7%&1.1% | 6.9 | / | -1.3%
CCOc1nnc(C)c2c(C)n(-c3cccc(OC)c3)nc12
→ -5.5% | ? | -0.9% | 2.2% | 0.9 | 20.7 | -8.8%
Cn1nc(-c2ccccc2)cc1NC(=O)Nc1ccc(F)cc1
→ -15.9% | -8.3% | / | 1.7% | -3.5 | 1.4 | -5.5%
CC1=CCC2C(=O)N(c3ccc(C)c(Br)c3)C(=O)C2C1 (stereo unspecified)
→ 1.2% | 0.7% | -1.2% | 4.8% | -7.8 | 3.0 | -5.7%
COc1ccc(NC(=O)C2CCN(C(=O)C3CC(=O)N(c4ccc(C)cc4)C3)CC2)c(OC)c1 (stereo unspecified)
→ 4.2% | -1.5% | / | -2.6% | 2.3 | -3.6 | 10.6%
O=C(c1ccc(Br)s1)N1CCN(c2ncccn2)CC1
→ 9.8% | 8.1% | -12.1% | 1.9%[38.3 µM] | 3.9 | -2.3 | 6.7%
O=C(O)CSCC(=O)NC1CCCc2ccccc21 (stereo unspecified)
→ 28.9% | -9.8% | -1.5% | 1.0% | 6.5 | 2.8 | 8.2%
CCOCCCNC(=O)c1ccc2nc(-c3ccc(OC)c(OC)c3)c(-c3ccc(OC)c(OC)c3)nc2c1
→ 19.3% | 3.9%[15.4 µM] | -2.3% | 5.9% | 6.3 | 4.6 | -15.0%
COc1ccccc1/C=N/NC(=O)c1ccc(NC(=O)c2ccccc2Br)cc1
→ 31.0%[activator] | -2.9% | -10.4% | 1.2% | 2.4 | 5.3 | 5.1%
C=CCNC(=S)NNC(=O)c1ccc(OCC(C)C)cc1
→ 17.7% | 0.6% | 9.1% | 1.1%[38.3 µM] | -3.8 | 2.7 | -9.9%
O=C(Nc1ccccc1Cl)c1cc(C2CCCCN2C(=O)CCc2ccccc2)on1 (stereo unspecified)
→ / | / | -11.5% | 2.2% | -5.9 | / | /
O=C(c1ccc(Cl)c(S(=O)(=O)N2CCCC2)c1)N1CCN(c2ncccn2)CC1
→ 12.2% | -0.7%[15.4 µM] | / | -1.9% | -0.7 | 4.7 | /
COc1ccccc1NC(=O)CSc1nc(=O)n(Cc2ccncc2)c2c1CCCC2
→ / | -90.2%[inhibitor] | -2.5% | 1.3% | 2.2 | / | -2.9%
Cc1ccnc2nc(C(=O)OCC(=O)N(CC(C)C)C3CCS(=O)(=O)C3)nn12 (stereo unspecified)
→ / | 0.1% | -0.2% | 0.0% | 2.4 | / | 24.5%
CN(C(=O)c1ccc(S(=O)(=O)N2CCOCC2)cc1)C1CCS(=O)(=O)C1 (stereo unspecified)
→ / | 20.5%[15.4 µM] | -0.4% | 0.1% | -1.2 | / | 14.7%
Cc1cc(-c2nnc3n2N=C(C(C)(C)C)CS3)n[nH]1
→ 3.2% | -13.3% | 1.0% | -1.2% | -5.0 | 2.2 | -0.1%
O=C(OCc1ccccc1)N1CCC2CC1c1ccc(N3CCN(Cc4ccc5c(c4)OCO5)CC3)cc12 (stereo unspecified)
→ / | / | -4.7% | -0.4% | -3.4 | / | /
O=C1C(=O)N(CCN2CCOCC2)C(c2cccnc2)/C1=C(/O)c1ccc(Cl)cc1 (stereo unspecified)
→ 11.7% | 2.6% | / | 2.9% | -4.1 | -0.4 | 11.9%
CCOC(=O)c1c(NC(=O)c2ccncc2)sc(C)c1C
→ 22.4µM* | -1.9% | 1.3% | 2.7% | -6.1 | 0.2 | -1.5%
Cc1nc2ccc([N+](=O)[O-])cc2c(=O)n1Cc1ccc(Br)cc1
→ 5.3% | -19.9% | / | 3.3% | 11.8 | -3.4 | 2.6%
O=C(c1ccccc1)N1CCN(c2ccc([N+](=O)[O-])c(NCC3CCCO3)c2)CC1 (stereo unspecified)
→ 0.5% | 24.1%[15.4 µM] | / | 2.6% | -0.6 | 8.6 | -12.3%
COc1ccccc1Cn1nc(C(=O)O)c2ccccc2c1=O
→ -14.9% | 21.8%[15.4 µM] | / | 0.7% | -1.5 | 0.6 | -10.2%
COC(=O)c1ccc(COc2ccc(/C=N/Nc3cccc(C(=O)O)c3)cc2)cc1
→ 4.9% | 7.5% | -11.0% | -1.1% | 4.6 | 9.8 | -17.8%
CCN1CCN(c2nc3ccccc3n3cnnc23)CC1
→ -1.5% | -25.0% | -6.2% | 0.9% | -0.4 | -3.5 | 6.3%
CCC(C)NC(=O)CCn1ccc2cc(S(=O)(=O)N3CCCC3)ccc21 (stereo unspecified)
→ 13.3% | -36.5%[inhibitor] | -0.8% | -0.1% | -0.6 | 3.9 | -8.5%
COc1cc(Cl)c(C)cc1NC(=O)CNC(=O)Cn1cnc2ccccc2c1=O
→ 13.6% | 22.9% | -0.2% | 1.7%[38.3 µM] | -1.1 | 2.0 | 5.5%
COc1ccccc1NC(=O)c1ccccc1C(=O)N(C)Cc1ccccc1
→ / | -4.5%[15.4 µM] | -12.3% | 1.4% | -0.3 | / | 6.6%
O=C(Nc1ccc(-c2nc3ccccc3s2)cc1)C1=COCCO1
→ 24.1% | -9.6% | -14.2% | 5.1% | -4.2 | -0.8 | -6.3%
COC(=O)C1(C)Nc2ccccc2C(=O)N1c1ccccc1OC (stereo unspecified)
→ 2.7% | -27.4% | 4.2% | 0.5% | 0.1 | 2.9 | 6.8%
O=C1c2ccccc2CN1C(CO)c1ccccc1 (stereo unspecified)
→ 10.5% | -1.1% | 0.0% | 1.1% | -1.6 | -0.3 | 14.3%
Cc1cccc(C)c1NC(=S)NN(Cc1ccccc1)c1ccccc1
→ 9.7% | -13.5% | 1.8% | 6.7% | -5.2 | -3.9 | 8.3%
CN(C(=O)COC(=O)c1ccccc1C(=O)c1ccccc1)c1ccccc1
→ / | ? | -1.6% | 1.9% | -0.4 | / | 5.6%
CCOC(=O)c1ccc(NC(=O)c2nc[nH]c2C(=O)NCCCCNC(=O)c2[nH]cnc2C(=O)Nc2ccc(C(=O)OCC)cc2)cc1
→ / | / | 0.2% | 1.3% | 0.1 | / | 0.9%
Cc1ccc2nsnc2c1S(=O)(=O)N1CCN(Cc2ccc3c(c2)OCO3)CC1
→ 5.4% | -31.2%[inhibitor] | -1.8% | / | 0.7 | 1.4 | ?
CC12CCC(=O)N1C(C(=O)Nc1ccc(F)c(F)c1F)CS2 (stereo unspecified)
→ / | -18.9% | -0.7% | 0.9% | -1.7 | / | 8.3%
CCN(C(=O)COc1cc(=O)n(CC)c2ccccc12)c1cc(Cl)ccc1OC
→ -17.2% | -16.1% | -3.8% | 2.8% | 1.8 | -0.3 | ?
Cc1ccc(N(Cc2ccccc2)C(=O)c2cccc(S(=O)(=O)N3CCOCC3)c2)cc1
→ / | -1.0%[15.4 µM] | -2.7% | -0.5% | -5.7 | / | -5.8%
Cc1ccc(C)c(NS(=O)(=O)c2ccc3c(c2)NC(=O)CCS3)c1
→ 3.4% | 4.5% | -1.0% | -0.8% | -4.4 | / | -1.5%
COc1ccc(COC(=O)c2nc3nc(C)cc(C)n3n2)cc1F
→ 2.4% | -24.6% | 2.0% | -0.4% | 1.4 | 3.0 | 1.2%
CCCn1c2ccccc2c2nc3ccccc3nc21
→ -9.2% | ? | -2.6% | 1.3% | -3.5 | 3.6 | 14.8%
O=C(COc1ccc(Br)cc1)N1CCc2ccccc2C1
→ -11.5% | -1.5% | / | -0.8% | 1.1 | -1.8 | -5.7%
N/C(=N\OC(=O)C(c1ccccc1)c1ccccc1)c1ccncc1
→ -23.3% | ? | / | 6.8% | 1.5 | 4.5 | -7.8%
CC(=O)CSc1nnc(Cc2ccc3c(c2)OCO3)o1
→ 31.1% | -59.5%[inhibitor] | -1.7% | -0.6% | -1.6 | 0.6 | -7.5%
CCCCC(c1nnnn1CC1CCCO1)N1CCN(c2cccc(C)c2C)CC1 (stereo unspecified)
→ -1.6% | 9.2% | 4.1% | 27.8% | -2.3 | 2.1 | 5.1%
CC(=O)c1ccccc1OCCn1nc(C(=O)O)c2ccccc2c1=O
→ -4.2% | -8.5%[15.4 µM] | / | 2.4% | -4.3 | 0.3 | 3.1%
CCN(CC(=O)Nc1c(F)cccc1F)C(=O)c1cc(C)oc1C
→ / | 4.7% | 1.0% | 0.9% | 0.7 | / | 12.8%
CCOC(=O)c1sc2nc(C)nc(NCc3ccccc3OC)c2c1C
→ ? | ? | 3.5% | 4.8% | 7.3 | 1.0 | 2.8%
COc1ccc(NC(=O)[C@H](CCS(C)(=O)=O)N2Cc3ccccc3C2=O)c(OC)c1
→ 18.5% | -5.4% | -1.6% | 1.3% | -1.4 | -1.9 | 0.9%
COc1ccc(C(=O)c2sc(Nc3ccccc3)nc2N)cc1OC
→ -17.1% | -4.3%[15.4 µM] | -28.4% | 3.4% | 1.5 | 3.8 | 24.6%
COc1cc2ccccc2cc1C(=O)OCC(=O)N(CC(C)C)c1c(N)n(Cc2ccccc2)c(=O)[nH]c1=O
→ / | -1.7% | ? | 1.9% | -3.1 | / | -5.0%
